Screening results as filed in PubChem BioAssay.
Rce1 inh: blocks yeast Ras-converting enzyme | Q03530 | yeast membranes, quenched prenylated peptide cleavage fluorescence | calls only | 290,000 tested, 0.27% active;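 active means fall in fluorescence gain of 50% or more versus controls, with final raw signal at or below 3038400; inconclusive means same 50% fall but final raw signal above 3038400; inactive means fall in fluorescence gain under 50%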;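 further: plate controls were neutral control wells for no effect and wells lacking membranes for full effect; tested at 10 µM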
HIV Env fusion: blocks HIV Env-driven cell-cell fusion. HeLa-JRFL Env/CEM21 cell fusion, luciferase. inhibition, % at 12.3 µM. 360,000 tested, 1.1% active;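 active means mean replicate inhibition score of at least 50 and every replicate individually at or above 50; inconclusive means only one of the two criteria met; inactive means mean below 50 and not all replicates reaching 50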;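 further: 0% = plate neutral controls and 100% = maraviroc near 300 nM; one replicate is shown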
MT1-MMP act inh: inhibitors of human MT1-MMP activation. HT1080 RFP-PRO-GFP cells, GFP/RFP ratio fluorescence, overnight; percent of plate control window, DMSO zero. GFP/RFP ratio change, % at 20 µM. AID 651647. P50281. 360,000 tested, 0.061% active;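 active means GFP/RFP ratio change of at least 30% with cell ATP level not reduced by more than half and red fluorescence within 50% of control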; further: strong numbers were not always called active
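Assay system: HT1080 RFP-PRO-GFP cells | Dosing: 20 µM single dose, 1% DMSO | Incubation: Cells overnight before dosing, compound overnight, 37 °C, 5% CO2 | Evaluation: GFP/RFP fluorescence ratio | Control set: DMSO-only wells and HT1080 RFP-L50D-GFP cell wells as references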
Yeast UUG start: modulators of start codon recognition fidelity in yeast; S. cerevisiae UUG-firefly luciferase reporter, luminescence/redox ratio; 350,000 tested, 0.13% active; activity score, % at 18.7 µM;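 active means replicate mean at a twofold rise or more, about +100% in these data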;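 further: firefly luciferase made from a UUG start codon reports start codon fidelity; reporter light over untreated wells divided by growth signal over untreated wells; some hits fall short of that in this replicate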
CSC inhib: cancer stem cell inhibition. cancer stem cell-like cells viability, luminescence. inhibition, % at 7.5 µM. 300,000 tested, 1.1% active. AID 2717;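 active means mean at 75% or more and at least half the replicates too; inconclusive means mean and replicates disagree; tested in HMLE shEcad cells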;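 further: 0% = median of negative and 100% = median of positive control wells; the first replicate is given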
PABP FP inh: PABP-poly(A) binding inhibition | PABP-poly(A) RNA binding, fluorescence polarization | inhibition, % at 35 µM | 290,000 tested, 1% active;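 active means 50% or more with normal probe brightness, or confirmed in later tests; inconclusive means above 50% with abnormal brightness, or retests that disagree; inactive means below 50% or failed in later tests; about a fifth of its hits are not listed in these tables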;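 further: calls also rest on retests at 20 µM and on dose response follow-up; controls were probe without protein and protein plus probe with vehicle; some compounds called inactive have numbers as strong as hits; many hits fall short of the cut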
Target sequence (P11940 whole entry, looked up): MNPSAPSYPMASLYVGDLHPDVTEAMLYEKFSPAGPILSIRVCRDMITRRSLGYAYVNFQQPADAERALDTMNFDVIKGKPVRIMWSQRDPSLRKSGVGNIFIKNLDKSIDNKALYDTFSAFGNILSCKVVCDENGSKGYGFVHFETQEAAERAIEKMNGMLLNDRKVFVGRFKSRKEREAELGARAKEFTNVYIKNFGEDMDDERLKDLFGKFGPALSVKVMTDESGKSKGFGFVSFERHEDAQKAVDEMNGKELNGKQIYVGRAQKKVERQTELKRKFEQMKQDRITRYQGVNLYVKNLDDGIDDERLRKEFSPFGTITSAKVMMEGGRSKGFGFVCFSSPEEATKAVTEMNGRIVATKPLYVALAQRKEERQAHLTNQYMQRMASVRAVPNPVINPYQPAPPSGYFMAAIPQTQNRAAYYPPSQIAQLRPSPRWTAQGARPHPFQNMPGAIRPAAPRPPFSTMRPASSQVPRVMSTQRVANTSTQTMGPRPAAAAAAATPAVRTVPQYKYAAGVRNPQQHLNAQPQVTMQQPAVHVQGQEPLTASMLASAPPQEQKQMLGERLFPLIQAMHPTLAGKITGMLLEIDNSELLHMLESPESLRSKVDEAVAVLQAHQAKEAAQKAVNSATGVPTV
eIF4H inh: inhibitors of RNA binding by human eIF4H. inhibition, % at 35 µM. 290,000 tested, 0.94% active. eIF4H fluorescence polarization binding assay. Q15056;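 active means 50% or more with normal probe brightness, or confirmed in later tests; inconclusive means above 50% with abnormal brightness, or retests that disagree; inactive means below 50% or failed in later tests; about a fifth of its hits are not listed in these tables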;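 further: calls also rest on retests at 20 µM and on dose response follow-up; 0% = protein and probe with vehicle and 100% = probe without protein; strong numbers were not always called active; many hits fall short of the cut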
eIF4H inh retest: also measured in eIF4H inh; calls as there; inhibition, %; compound at 20 µM; confirmation average;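 mean of two retest wells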
PABP FP inh retest: recorded beside PABP FP inh, whose call it bears; inhibition, %; compound at 20 µM; confirmation repeats;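 mean of two retest wells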
MT1-MMP act inh RFP: further read-out of MT1-MMP act inh, marked with its call; RFP signal change, %; measured here: RFP expression control read;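 0 = vehicle wells; hits needed this value within 50% of zero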
* marks the source's active call; other numbers are inactive results; i = inactive; ? = inconclusive; . = not tested or not shown.

SMILES	Rce1 inh	HIV Env fusion	MT1-MMP act inh	MT1-MMP act inh RFP	Yeast UUG start	CSC inhib	PABP FP inh	eIF4H inh	others
N#CC1(NC(=O)CSc2nnc3n2CCCCC3)CCCCC1	.	.	-1	1	-13	21	.	.
Brc1ccccc1-c1nc2c3ccccc3ncn2n1	.	-34	-4	-7	-5	-2	.	.
O=C(NNC(=O)C1CCC1)c1ccccc1F	i	12	1	2	-10	.	.	.
CCOC(=O)c1cnc(-n2nc(C)cc2C)nc1NC1CCCCC1	i	105*	-12	-24	-25	51	-11	6
C=CCNC(=O)Cc1c(OC)ccc2cc(Br)ccc12	i	28	18	-18	.	-3	-2	11
O=C(N/N=C/c1ccc(O)cc1)c1csc2ccccc12	i	.	-2	2	-10	0	4	-14
C=CCc1cccc(/C=N/NC(=O)c2ccccc2Br)c1O	i	-2	-8	-6	.	57	7	8
CCS(=O)(=O)c1nc(S(=O)(=O)c2ccc(C)cc2)c(N2CCOCC2)s1	i	-1	0	4	7	16	10	8
COc1cc(/C=C/C(=O)OCC(=O)N(C)Cc2ccccc2)ccc1O	.	-1	7	-3	-4	-6	.	.
Cc1ccc(NC(=O)CC[C@H]2O[C@@H](n3cnc4c(NC(=O)c5ccccc5)ncnc43)[C@H](O)[C@@H]2O)cc1C	.	-2	2	3	-5	.	.	.
COc1ccccc1NC(=O)c1sc(NC(=O)c2ccco2)c(C#N)c1C	i	.	4	-7	.	14	13	-4
Cc1cc(NC(=O)Cn2nc(C(F)(F)F)c3c2CCC3)no1	i	.	-1	-1	3	-7	1	-7

Looked up by structure from the entries so far:
SMILES	Rce1 inh	HIV Env fusion	MT1-MMP act inh	MT1-MMP act inh RFP	Yeast UUG start	CSC inhib	PABP FP inh	eIF4H inh	others
O=C(NNC(=O)C1CCC1)c1ccccc1F	i	12	1	2	-10	.	.	.
CCOC(=O)c1cnc(-n2nc(C)cc2C)nc1NC1CCCCC1	i	105*	-12	-24	-25	51	-11	6

Additional compounds follow:
SMILES	Rce1 inh	HIV Env fusion	MT1-MMP act inh	MT1-MMP act inh RFP	Yeast UUG start	CSC inhib	PABP FP inh	eIF4H inh	others
O=C(CCCNC(=O)c1ccc(Cl)cc1)NCc1ccc(F)cc1	i	-19	3	0	-4	.	-5	-7
O=C(/C=C\Nc1cccc(F)c1)c1cccs1	i	.	-2	5	.	.	-1	4
CN(C1CCCCC1)S(=O)(=O)c1ccc(NC(=O)C2CCCCC2C(=O)O)cc1 (stereo unspecified)	i	.	3	3	-5	-3	-1	-6
O=C(CNc1cccc(S(=O)(=O)N2CCCCC2)c1)Nc1ccccc1F	i	17	1	-9	7	-16	3	-4
CCOC(=O)c1sc2nc(CSCC(=O)OCc3ccc(C(=O)OC)o3)[nH]c(=O)c2c1C	i	-62	-10	5	1	-5	35	8
Cc1ccc(/C=N/NC(=O)c2cccs2)s1	i	-43	0	2	-11	7	-13	-3
O=C(Nc1cccc2c1[nH]c(=O)c1ccccc12)C(F)(F)F	.	-5	10	-1	-6	.	.	.
Cc1ccccc1Nc1nc(-c2sc(NC(=O)c3ccco3)nc2C)cs1	i	-33	1	6	-13	8	-7	1
CC(=O)c1ccc(NC(=O)COC(=O)c2c3c(nc4ccccc24)/C(=C\c2cccs2)CCC3)cc1	i	-7	0	-5	.	117*	2	?
C/C=C(\C)C(=O)N1CC2(CC(c3cccc(NC(=O)COc4ccc(Cl)cc4)c3)=NO2)C[C@@H]1C(N)=O (stereo partly specified)	i	6	8	0	-2	-6	3	-5
COc1ccc(CCNS(=O)(=O)c2cc3c(cc2C)NC(=O)CO3)cc1OC	i	-2	-6	3	5	-10	2	-11
O=C(COC(=O)CCCNC(=O)c1ccc(Cl)cc1)Nc1cc(Cl)ccc1Cl	i	.	3	6	0	-9	4	-1
Cc1ccc(C(=O)O/N=C\c2ccc(N3CCCCC3)c([N+](=O)[O-])c2)cc1	i	.	-1	-6	-23	-17	-13	-6
CCC(C(=O)Nc1ccc(OC)c(Cl)c1)c1ccccc1 (stereo unspecified)	i	.	0	-2	.	17	-7	4
COc1ccc(OCCC(=O)OCC(=O)NCc2ccccc2OC)cc1	i	.	3	4	.	-14	.	.
Cc1nn2c(-c3ccccn3)ccnc2c1Cl	i	-17	-2	1	.	-1	-14	-2
CC(NC(=O)COC(=O)C1(C)CC1(Cl)Cl)c1ccccc1 (stereo unspecified)	.	.	3	4	12	0	.	.
COc1ccc(NC(=O)CC2SC(N)=NC2=O)c([N+](=O)[O-])c1 (stereo unspecified)	.	-18	2	6	3	-3	0	-5
CCCC[C@@H]1CNCCN1CCc1cccc(F)c1	i	-2	-2	-2	-9	-3	.	.
COc1ccc(CCNS(=O)(=O)c2cn(C)c(=O)n(C)c2=O)cc1OC	i	17	-5	2	-1	-14	-2	-3
CCCCC(=O)Nc1nnc(C)s1	i	.	1	0	-1	-26	-5	5
COc1cc2c(cc1OC)-c1cc(NC3CCCC3)nc(=O)n1CC2	i	-39	3	3	-28	-11	11	-5
Cc1ccsc1C(=O)OCC(=O)NCc1ccco1	i	-95	2	2	-17	-13	-2	-9
Cc1nc(-c2cccnc2)sc1C(=O)N/N=C/c1ccccc1Cl	i	-7	2	1	-6	4	7	-9
COCc1n[nH]c(=S)n1-c1cccc2ccccc12	.	-74	1	2	-20	0	1	4
CC(=O)NCC(=O)N(Cc1ccco1)C1(C(=O)NC2CCCCC2)CCCCC1	i	-7	0	6	2	-9	2	4
COCc1cc(C)nc(SCC(=O)Nc2ccc3c(c2)OCO3)c1C#N	i	-78	3	-3	-10	0	12	3
CN(C)C(CNC(=O)c1ccc(C2SCCS2)cc1)c1ccccc1 (stereo unspecified)	.	-16	6	7	-6	20	-2	-9
COc1ccc(C(O)P(=O)(OCCC(C)C)c2ccc(N(C)C)cc2)cc1 (stereo unspecified)	i	15	2	2	-13	6	-1	-3
C=CCn1c(=S)[nH]c2sc3c(c2c1=O)CCCC3	i	-21	2	-2	-14	1	7	0
Cc1ccccc1Cn1nnc(C(=O)Nc2cccc(C)c2C)c1N	i	-36	-1	-6	-7	55	-6	-15
COc1ccc(S(=O)(=O)Nc2ccc(S(=O)(=O)Nc3nc(C)cc(C)n3)cc2)cc1OC	i	.	-1	6	-5	12	-10	-5
O=C(CSc1nc2c(c(=O)n1-c1ccc(Br)cc1)SCC2)NCc1ccco1	i	.	16	5	-2	-1	8	-8
C/C=C/c1ccc(OCCCNCC(C)O)c(OC)c1 (stereo unspecified)	i	.	2	3	4	1	-14	-3
Cc1nc(SCC(=O)NC2CCS(=O)(=O)C2)c(C#N)c(C)c1C (stereo unspecified)	.	.	-4	2	-13	-22	.	.
O=[N+]([O-])c1ccccc1/C=N\N1CCN(c2ccccc2)CC1	i	-1	3	-2	.	1	-1	-1
C=CCn1c(C)cc(C2=NNC(=NCc3ccccc3)SC2)c1C	i	-31	1	2	.	10	3	4
Fc1ccccc1NC(=S)NCc1ccc(Cl)cc1	i	-13	-2	-3	-17	-4	0	-2
CCOc1ccccc1NC(=O)Cn1c(=O)oc2ccccc21	i	1	-5	-3	-13	16	2	2
O=C(Nn1c(C2CCCCC2)nc2ccccc2c1=O)c1cc(Cl)ccc1[N+](=O)[O-]	i	-16	-4	1	.	-2	-2	-7
Cc1cc(C(=O)N/N=C/c2cc(N=Nc3ccccc3)ccc2O)n[nH]1	i	.	7	-13	.	109*	-5	21
CC(=O)Nc1nnc(Cc2c[nH]c3ccccc23)s1	i	6	1	6	.	-3	-11	-10
COc1ccc2cc(CO)c(Cl)nc2c1	i	-9	-1	1	-8	-2	-10	4
COc1ccc(NC(=O)C(CC(=O)O)C(C)c2ccccc2)cc1 (stereo unspecified)	i	-13	3	5	.	3	-5	-8
Cc1nc(N2CCN(S(=O)(=O)c3ccc(F)cc3)CC2)c2c(C)c(C)sc2n1	i	.	1	-2	-16	.	-3	4
CCOc1ccc(NC(=O)CN(C)CC(=O)Nc2cccc(Cl)c2C)cc1OCC	i	-91	-1	-1	-9	-6	-4	-2
CCOC(=O)c1cc(OCC)c2c(ccc3ccccc32)n1	.	14	-9	-4	-10	.	.	.
CCCOCC(O)COc1ccccc1C(=O)N1CCOCC1 (stereo unspecified)	i	.	-2	5	-10	-2	-3	-14
COc1ccc(-c2ccc(SCC(=O)N3CCOCC3)nn2)cc1OC	i	-55	1	2	-8	-5	2	4
N#Cc1cc(S(=O)(=O)c2ccc(F)cc2)c(N)[nH]c1=O	i	3	4	6	-6	-1	-6	-4
Cc1cnc(CNC(=O)c2ccc(OC3CCN(C(=O)C4CC4)CC3)cc2)cn1	i	16	.	.	-11	-15	5	-2
COc1ccc(/C=C/C(=O)c2ccc3c(c2)OCO3)cc1OC	.	.	2	3	-20	19	.	.
COc1cc(CN2CCCC(CO)(Cc3cccc(Cl)c3)C2)cc2c1OCO2 (stereo unspecified)	i	11	2	2	-3	24	-13	-5
Cn1c(=O)c2ncn(C)c2n(C)c1=O	.	1	5	1	3	.	.	.
Clc1cc(Cl)c2nc(N3CCOCC3)sc2c1	i	i	-3	-2	-11	17	-5	81	eIF4H inh retest=-15;PABP FP inh retest=15
COC(=O)c1cc(COC(=O)c2ccc(OC)c(S(=O)(=O)N3CCCC3)c2)oc1C	i	.	-3	2	7	.	-13	1
CCc1ccc(-c2ccc(SCC(=O)Nc3nnc(C)s3)nn2)cc1	i	-198	2	-8	.	0	-2	-13
O=C(OCn1nnc2ccccc2c1=O)c1cc(-c2ccccc2Cl)nc2ccccc12	i	-2	2	8	23	11	7	-3
COc1ccc(/C=N/NC(=O)c2nonc2N)cc1OC	.	-6	0	-2	.	-16	-1	8
CC(=O)/C=C(\C)Nc1ccccc1O	i	-6	1	5	-17	15	27	35
Additional records follow.
SMILES	Rce1 inh	HIV Env fusion	MT1-MMP act inh	MT1-MMP act inh RFP	Yeast UUG start	CSC inhib	PABP FP inh	eIF4H inh	others
Cc1cccc(-c2cc3nc(C)cc(NCCCN(C)C)n3n2)c1	i	.	0	-3	-28	.	14	-2
Nc1c(C(=O)CSc2nnc(-c3ccccc3)o2)c(=O)[nH]c(=O)n1C1CC1	.	-2	-1	-2	-14	-6	.	.
COc1c(O)cc2c(c1O)C(=O)CC(c1ccccc1)O2 (stereo unspecified)	i	.	.	.	.	.	9	-1
O=C(NCC1CCCO1)c1nn2c(C(F)(F)F)cc(-c3cc(Br)cs3)nc2c1Br (stereo unspecified)	i	7	-15	0	-24	.	?	16
CCOC(=O)c1ccc(N2C(=O)CC(N(C)CCc3ccc(OC)c(OC)c3)C2=O)cc1 (stereo unspecified)	i	.	1	6	-19	-3	1	-7
O=C(c1ccc(F)cc1)C1CCN(Cc2ccc(F)cc2)CC1	i	16	-2	-8	-6	-1	-3	-1
Cc1ccc(SC(C)C(=O)NCCC2=CCCCC2)cc1 (stereo unspecified)	i	13	4	7	-3	-7	-4	1
CSCc1ccc(C(=O)N2CCCC(Nc3ccc4c(c3)OCCO4)C2)o1 (stereo unspecified)	i	-4	-1	-3	0	3	-6	-8
COc1ccc(NS(=O)(=O)c2cc(NC(=O)CC(=O)c3ccc([N+](=O)[O-])cc3)ccc2C)cc1	i	8	3	-9	.	3	-1	-3
CN(c1ccc(OCC(=O)N2CCCCC2)cc1)S(=O)(=O)c1cccs1	i	.	8	-6	.	17	-6	-1
O=C(NCc1ccco1)c1cc2ccc(O)cc2oc1=O	i	.	5	-1	.	20	37*	?	PABP FP inh retest=104*
